# CBX7 AlphaScr: CBX7 inhibition, primary AlphaScreen | hit rate 1.1% among 66,000 | normalised signal (fraction of DMSO) (test concentration not listed) | AlphaScreen His6-CBX7 / biotin-H3K27me3 peptide binding; hits give low values | AID 1224903 | O95931; in the data active = normalised signal below about 0.5;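 note: 100 nL library stock added to about 20 µL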
# Target sequence (O95931 whole entry, looked up): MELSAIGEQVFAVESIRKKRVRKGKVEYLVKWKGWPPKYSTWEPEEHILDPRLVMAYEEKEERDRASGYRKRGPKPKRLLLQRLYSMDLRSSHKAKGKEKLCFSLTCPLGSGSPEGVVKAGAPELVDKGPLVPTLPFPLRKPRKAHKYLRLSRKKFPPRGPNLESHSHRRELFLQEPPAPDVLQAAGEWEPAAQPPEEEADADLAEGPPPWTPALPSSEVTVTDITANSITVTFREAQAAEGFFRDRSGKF
# CBX7 AlphaScr z-score: also measured in CBX7 AlphaScr; calls as there; z-score; measured here: z-score of CBX7 signal; some inactives read as strong as hits; reference of the scale not given here;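 same signal on another scale; lower means less binding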
# * = called active by the depositor.
SMILES	CBX7 AlphaScr	CBX7 AlphaScr z-score
Cc1ccc(-n2nc3c(c2NC(=O)C(C)Oc2ccccc2)CSC3)cc1 (stereo not drawn)	1	0.77
NC(=O)c1ccc(-n2nnnc2SCc2cccc(Br)c2)cc1	1	0.47
CCN(CC)S(=O)(=O)c1ccc2c(c1)N(CC(=O)Nc1cccnc1)C(=O)CO2	1.1	2.7
O=C(Cn1nc(-c2ccccc2)ccc1=O)NCCN1CCOCC1	1.1	3.2
CCC1Oc2ccc(C)cc2N(CC(=O)N2CCOCC2)C1=O (stereo not drawn)	1	0.28
O=C(NCCCN1CCOCC1)c1n[nH]c(=O)c2ccccc12	1.2	1.1
O=C(CSc1nnc(Cc2cc(=O)[nH]c(=O)[nH]2)n1-c1ccccc1)N1CCCCC1	1	-0.041
O=C(NCCN1CCOCC1)c1ccc2c(c1)ncn2-c1ccc(F)c(F)c1	1	0.26
COc1ccc(-c2nc3ccccc3o2)cc1NC(=O)COc1ccc(C)cc1	1.1	0.06
CCOC(=O)c1c(C)n(-c2ccc(C)cc2)c2ccc(OCC(O)CNc3ccc(OC)cc3)cc12 (stereo not drawn)	0.67	-6.8
CCCCN(CC)S(=O)(=O)c1ccc(C(=O)Nc2cccc(-c3nc4ccccc4[nH]3)c2)cc1	1	-0.058
CC(NC(=O)c1ccccc1F)C(c1cccs1)N1CCN(C)CC1 (stereo not drawn)	0.94	-1.4
CCN1C(=O)c2ccccc2S(=O)(=O)c2ccc(C(=O)NCc3ccccc3)cc21	1.1	2.1
Cc1ccc(S(=O)(=O)c2nc(C(c3ccccc3)c3ccccc3)oc2N2CCOCC2)cc1	0.71	-10
COc1ccc(NC(=O)C2CCN(C(=O)c3cnn(-c4ccccc4)c3-n3cccc3)CC2)cc1	1	0.23
COc1ccc(Nc2nc3ccccc3[nH]2)cc1	0.85	-2.4
Cc1nc2nc(SCC(=O)NCc3ccc(F)cc3)nn2c(C)c1Cc1ccccc1	1.3	1.9
CCOC(=O)c1cc(-c2ccccc2)n(CCC(=O)NCc2ccc(Cl)cc2)c1C	0.99	-0.15
O=C(Cn1cnc(Cl)c1Cl)NCc1n[nH]c(=O)c2ccccc12	0.92	-0.89
Cc1ccc(-c2nnc(NCc3nc4ccccc4[nH]3)c3ccccc23)cc1S(=O)(=O)N1CCOCC1	0.93	-0.79
COc1ccc(-c2noc(-c3ccc(OC)c(OC)c3)n2)cc1	1	0.19
COc1cccc(N2CCN(Cc3nc4ccccc4c(=O)[nH]3)CC2)c1	0.87	-1.5
CC1CCCCN1C(=O)c1ccc2c(c1)N(Cc1ccc(F)cc1)C(=O)c1ccccc1S2=O (stereo not drawn)	1	0.38
Cc1ccccc1C1CC(c2ccc(Cl)cc2)Nc2nnnn21 (stereo not drawn)	0.97	-1
CCSc1oc(-c2ccccc2)nc1S(=O)(=O)c1ccc(Cl)cc1	1.1	2.2
Cc1ccc2nc(-c3ccc(F)cc3)c(-c3ccc(F)cc3)nc2c1	1.3	1.8
O=C(Nc1c(Cl)cccc1Cl)c1cccnc1Oc1ccc(Cl)cc1	1	1.2
CCC(C)NC(=O)C1CCC(=O)N1CCc1ccccc1 (stereo not drawn)	1.1	1.6
CCN(CC)c1nc(C)nc2sc(C(=O)Nc3ccc(OC)cc3OC)c(C)c12	1	0.26
Cc1ccc(S(=O)(=O)c2nc(-c3ccc(F)cc3)oc2SCC(=O)Nc2ccc(F)cc2)cc1	0.93	-0.59

# Given as labelled records: part of the list above.
CCN(CC)c1nc(C)nc2sc(C(=O)Nc3ccc(OC)cc3OC)c(C)c12
- CBX7 AlphaScr: 1
- CBX7 AlphaScr z-score: 0.26

COc1cccc(N2CCN(Cc3nc4ccccc4c(=O)[nH]3)CC2)c1
- CBX7 AlphaScr: 0.87
- CBX7 AlphaScr z-score: -1.5

# Later entries.
SMILES	CBX7 AlphaScr	CBX7 AlphaScr z-score
Cc1cccc(CCNC(=O)CCCNS(=O)(=O)c2ccc3c(c2)CCC(=O)N3)c1	1.1	2.1
COc1ccc(-c2nc3ccc(C)cn3c2Nc2ccc3c(c2)OCO3)cc1	1	0.32
Cc1noc(C(=O)Nc2ccc(C#N)cc2)c1Cl	1	1.6
Cc1ccc(-n2cc(-c3ccc(Cl)cc3)[nH]c2=O)cc1F	1	0.95
O=C(c1nn2c(C(F)(F)F)cc(-c3ccccc3)nc2c1Cl)N1CCCCC1	1	1.7
Cc1cc2ncn(C(C)c3ccccc3)c2cc1C (stereo not drawn)	1	0.049
CCOC(=O)c1c(CN2CCN(c3ccccc3C)CC2)n(-c2ccccc2)c2cc(Br)c(OC)cc12	1	0.029
CC1CCN(S(=O)(=O)c2ccc(C(=O)Nc3nc(-c4ccncc4)cs3)cc2)CC1	1	-0.064
O=C(Nc1nc(-c2ccccc2)c(C(=O)c2ccccc2)s1)c1cc(Cl)cc(Cl)c1	0.94	-1
Cc1ccccc1CN1C(=O)c2ccccc2S(=O)c2ccc(C(=O)O)cc21 (stereo not drawn)	0.96	-0.81
Cc1cccc(-c2nc(Nc3cc(Cl)ccc3C)c3ccccc3n2)c1	0.98	-0.28
CCn1c(C2CC(=O)N(c3ccc(C)c(Cl)c3)C2)nc2ccccc21 (stereo not drawn)	1.5	2.3
Cn1cc(CCC(=O)NCc2ccccc2Cl)c2ccccc21	1	-0.18
O=C(Nc1ccc2oc(-c3ccc(F)cc3)nc2c1)c1ccc2c(c1)OCCO2	1	1.6
Cc1nc2cc(C(=O)O)ccc2n1-c1ccc(C(C)C)cc1	1.1	0.95
CCOC(=O)c1cnc2ccc(OC)cc2c1Nc1cccc(O)c1	1	0.025
O=C(CC1CCCCC1)Nc1c2c(nn1-c1ccc(F)cc1)CSC2	1.1	2
CCOc1ccc(-n2ccnc2SCC(=O)Nc2cc(C(F)(F)F)ccc2Cl)cc1	1	0.019
O=C(CSc1nccn1-c1ccccc1)Nc1cccc(Cl)c1	0.73	-10
Clc1ccc2nc(N3CCCCC3)nc(-c3ccccc3)c2c1	1.3	1
Cc1cc(N2CCC(C)CC2)nc2cccc(O)c12	0.63	-9.9
c1ccc(CC(Cc2nc3ccccc3[nH]2)c2nc3ccccc3[nH]2)cc1 (stereo not drawn)	1	0.66
CCC(=O)Nc1cccc(-c2cn3ccccc3n2)c1	1.1	1.3
CCC(=O)N(CCC(c1ccc2c(c1)OCO2)c1ccccc1OC)Cc1ccc2c(c1)OCO2 (stereo not drawn)	0.82	-8.2
CCCCN(CC)S(=O)(=O)c1ccc2[nH]c(=O)cc(C(=O)NC(C)CC)c2c1 (stereo not drawn)	0.98	-0.35
COC(CNC(=O)c1ccc2c(c1)ncn2-c1cccc(F)c1)OC	1	0.19
Nc1nc(CN2CCCC2)cs1	0.9	-1.6
COCCCNC(=O)c1nnc(Cc2ccc(F)cc2)o1	0.89	-1.3
COc1ccc(-c2noc(COc3cc(C)ccc3C)n2)cc1OC	1.2	1.6
O=C(c1ccc2c(c1)N(Cc1ccc(Cl)cc1)C(=O)c1ccccc1S2(=O)=O)N1CCOCC1	0.77	-2.5
CCN(CC)C(=O)CCNC(=O)Cn1ccc2ccccc2c1=O	0.93	-1.6
Cn1c(=O)c(Cc2ccccc2F)nc2ccccc21	1.1	0.95
CCc1cccc(C)c1NC(=O)Nc1ccc2c(c1)N(C)C(=O)CS2	1	0.9
COc1ccc(-c2nc(N3CCCCC3)[nH]c(=O)c2C#N)cc1	1	1
Clc1ccc(OCc2nc(-c3cccnc3)no2)cc1	1	0.076
COC(=O)c1c(NC(=O)COc2ccc(Cl)cc2)sc2c1CCCC2	1.2	1.8
CCN(CC)C(=O)c1cc(-c2cccc(Cl)c2)on1	0.98	-0.12
CCOc1ccc(NS(=O)(=O)c2ccc3[nH]cc(C(=O)N(CC)CC)c(=O)c3c2)cc1	0.98	-0.099
Cc1ccc(OCC(=O)N2CCN(c3nnc(-c4ccccc4)c4ccccc34)CC2)cc1	0.98	-0.36
COc1ccc(C(C(=O)NC2CCCCC2)N2CCC(Cc3ccccc3)CC2)cc1 (stereo not drawn)	1	0.16
COc1ccc(CCNC(=O)C2CCN(S(=O)(=O)c3cccs3)CC2)cc1OC	1.1	1.5
CCOc1ccccc1NC(=O)c1sc2ncn(CC(=O)N3CCOCC3)c(=O)c2c1C	1	0.49
O=C(Nc1c(-c2cccs2)nc2ccccn12)c1cccc(Cl)c1	1.1	2.7
Cc1ccccc1NC(=O)CSc1ccc2nnc(-c3ccccc3)n2n1	0.97	-0.92
CCc1ccccc1NC(=O)CCc1c(C)nc2c(-c3ccc(F)cc3)c(C)nn2c1C	1.1	1.9
Cc1ccc(-c2nc(CSCC(=O)NCCCN3CCOCC3)c(C)o2)cc1	0.99	-0.16
CCN(C(=O)c1cn(CC(C)C)c(=O)c2cc(OC)c(OC)cc12)c1ccccc1C	0.92	-0.083
CCCCNC(=O)c1cc(=O)[nH]c2ccc(S(=O)(=O)N(CC)CCCC)cc12	0.99	-0.27
COc1ccc(NC2=NC(C)(C)Cc3cc(OC)c(OC)cc32)cc1	1	-0.12
C=CCNC(=O)c1cc(-c2cccc(Cl)c2)on1	1.1	1.1

# Reformatted with each value named: three of the compounds above.
> COc1ccc(CCNC(=O)C2CCN(S(=O)(=O)c3cccs3)CC2)cc1OC
  CBX7 AlphaScr = 1.1
  CBX7 AlphaScr z-score = 1.5
> CCOc1ccccc1NC(=O)c1sc2ncn(CC(=O)N3CCOCC3)c(=O)c2c1C
  CBX7 AlphaScr = 1
  CBX7 AlphaScr z-score = 0.49
> O=C(Nc1c(-c2cccs2)nc2ccccn12)c1cccc(Cl)c1
  CBX7 AlphaScr = 1.1
  CBX7 AlphaScr z-score = 2.7

# The main list resumes with the three entries that preceded the break.
# Below each SMILES: CBX7 AlphaScr	CBX7 AlphaScr z-score
> CCCCNC(=O)c1cc(=O)[nH]c2ccc(S(=O)(=O)N(CC)CCCC)cc12
  0.99	-0.27
> COc1ccc(NC2=NC(C)(C)Cc3cc(OC)c(OC)cc32)cc1
  1	-0.12
> C=CCNC(=O)c1cc(-c2cccc(Cl)c2)on1
  1.1	1.1
> O=C(NC1CCCC1)c1cc(-c2cccnc2)nc2ccc(S(=O)(=O)N3CCCCCC3)cc12
  1	0.84
> c1ccc(-c2nnc3sc(CN4CCC5(CC4)OCCO5)cn23)cc1
  1.2	2.6
> COCCn1c(=O)[nH]c2cc(C(=O)NCCc3ccc(S(N)(=O)=O)cc3)ccc2c1=O
  1	1.7
> COc1ccc(CNC(=O)CN2N=C(c3ccccc3)CCC2=O)cc1
  1	0.066
> CCOc1ccc(NC(=O)N2CCC(N3CCCCC3)CC2)cc1
  1.1	2.6
> Cc1cc(N2CCCCC2)nc2ccc(NC(=O)CCC(=O)N3CCN(c4ccccn4)CC3)cc12
  1.1	0.99
> COc1cccc(-c2nn(C)c3sc(C(=O)Nc4ccc(F)cc4Cl)cc23)c1
  1	0.65
> Fc1ccc(-c2nc(-c3ccncc3)no2)cc1
  1.1	0.058
> Cc1cc(NC(=O)CSc2nnc(-c3ccc(Cl)cc3)o2)no1
  1.2	3.2
> COc1cc(-c2ncnn2-c2cccc(Cl)c2C)cc(OC)c1OC
  1	0.96
> CN(C)CCCNS(=O)(=O)c1ccc2c(c1)CCN2C(=O)C1CCC1
  1	-0.095
> O=C(NC1CCCCC1)C1C2C=CC3(CN(Cc4cccs4)C(=O)C13)O2 (stereo not drawn)
  1.1	1.7
> COc1ccccc1CNC(=O)c1ccc2c(c1)N=C(C)c1c(C)ccc(C)c1S2
  0.9	-1.5
> CCc1ccccc1NC(=O)Nc1ccc2c(c1)N(C)C(=O)CS2
  0.94	-1.4
> Cc1ccc(Cn2c(C(=O)NCc3ccccc3Cl)cc3sccc32)cc1
  0.91	-2.6
> Cc1ccc(NC(=O)C2C3C=CC4(CNC(=O)C(c5ccc(F)cc5)N(Cc5cccs5)C(=O)C24)O3)cc1 (stereo not drawn)
  0.91	-1.9
> CC(C)c1ccc(NC(=O)C(c2ccc3c(c2)OCO3)N(Cc2ccccc2)c2ccccc2)cc1 (stereo not drawn)
  1	1
> Cc1c(Cl)cccc1NC(=O)c1ccc2c(c1)N(Cc1ccc(F)cc1)C(=O)CS2
  1	0.13
> Cc1ccc(OCCCC(=O)Nc2ccc(N3CCOCC3)cc2)cc1
  0.91	-2.3
> COC(=O)c1ccc2nc(NC(=O)CSc3ncn[nH]3)sc2c1
  0.91	-3.4
> Cc1ccc(NC(=O)CC2Sc3ccc(C(F)(F)F)cc3NC2=O)c(C)c1 (stereo not drawn)
  0.97	-0.76
> CCC(=O)N1CCc2cc(S(=O)(=O)NCCCN(C)Cc3ccccc3)ccc21
  1	0.89
> CCN(CC)CCNC(=O)c1cc2c(s1)-c1ccccc1OC2
  1.1	5.9
> Cc1ccc2nc(Nc3ccc(Br)cc3)nc(-c3ccccc3)c2c1
  1.9	16
> CC(=O)N1c2ccc(S(=O)(=O)N3CCC(C)CC3)cc2CC1C (stereo not drawn)
  0.99	-0.35
> Fc1ccc(-c2cc(-c3ccccc3)nc3ncnn23)cc1
  1	1.2
> Cc1ccc(-c2nc(CS(=O)(=O)CC(=O)N3CCCC3)c(C)o2)cc1
  0.77	-0.47
> CCOC(=O)c1cnc2cc(C(F)(F)F)ccc2c1NCc1ccccc1OC
  1.6	10
> COc1ccc(-c2cc(C(=O)Nc3sc4c(c3C(N)=O)CCCC4)no2)cc1OC
  1.3	2.4
> COc1ccccc1CNC(=O)Cc1ccc(NC2=NC3CS(=O)(=O)CC3S2)cc1 (stereo not drawn)
  0.96	-0.44
> CN(C(=O)Cn1nc(Cc2ccncc2)c2ccccc2c1=O)c1ccccc1Cl
  1.1	2.7
> Cc1ccc(C(C)C)c(OCC(O)CN2CCn3c4c(c5cc(C)ccc53)CCCC42)c1 (stereo not drawn)
  1.1	0.64
> COc1cc2ccccc2cc1C(=O)Nc1cc(-c2nc3ccccc3o2)ccc1Cl
  1.3	2.1

# Some of the compounds tested. The share of hits here may be higher or lower than overall.
